# HPGD inh: blocks human HPGD enzyme activity; AID 894; P15428; 150,000 compounds, 4.3% hits; Potency, µM, for the others: top-dose activity change, negative = inhibition, hits mostly inhibitors; purified HPGD, NADH fluorescence kinetic, PGE2 substrate; active = well fitted inhibition curve with a large enough effect (not every such curve was filed as active); inconclusive = small, poorly fitted or top-dose-only effect, or another doubt; inactive = no such curve, though single readings can be large or run the other way;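 further: top concentration of the series not given in the record; plate controls included wells without enzyme; inactives centre near -10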
# Target sequence (P15428 whole entry, looked up): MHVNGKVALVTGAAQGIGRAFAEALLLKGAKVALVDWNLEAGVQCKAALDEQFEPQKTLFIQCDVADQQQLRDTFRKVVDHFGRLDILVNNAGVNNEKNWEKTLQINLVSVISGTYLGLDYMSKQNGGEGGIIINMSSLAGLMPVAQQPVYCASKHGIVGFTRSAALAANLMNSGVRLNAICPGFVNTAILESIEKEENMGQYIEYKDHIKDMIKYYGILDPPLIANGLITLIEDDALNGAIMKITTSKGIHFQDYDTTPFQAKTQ
#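 20 nM HPGD preincubated 15 min at room temperature with compound in 50 mM Tris-HCl pH 8, 0.01% Tween 20. Started with 1 mM NAD+ and 30 uM prostaglandin E2; NADH fluorescence (360/450 nm) read 5 times over 30-s intervals, last minus first.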
# * hit, by the source's call; u = inconclusive; & = joins results of further samples. On the % scale 0 is the no-effect control and ±100 the full control effect; potency means the concentration at half of the fitted maximal effect. The list is partial; rates above refer to the full screens.
SMILES,HPGD inh
CC(C)CNS(=O)(=O)c1cc(C(=O)N2CC(C)OC(C)C2)c(Cl)cc1Cl (stereo not given),-0.4%
CCC1=C(OC(=O)N(CC)CC)N2C(=O)OC(=NCCOC)[C@]2(Cc2ccccc2)[C@H]2C1=CC[C@H]1C(=O)N(CC(=O)OC)C(=O)[C@H]12,-2.7%
COC(=O)c1ccc(COC(=O)c2ccc(S(=O)(=O)N3CCC(C)CC3)cc2)o1,-19.9%
Cc1ccc(S(=O)(=O)C2(C(=O)O)CCCC2)cc1C,-10.6%
COC(=O)N/N=C\c1ccc(-c2cc(Cl)c(Cl)cc2Cl)o1,-11.0%
COc1ccc(Cc2nnc(SCc3c(C)noc3C)n2C2CCCCC2)cc1OC,-1.2%
Cc1sc2nc(CN3CCOCC3)nc(NS(=O)(=O)c3ccccc3)c2c1C,-12.3%
Cc1nn(C)cc1-c1n[nH]c(=S)n1-c1ccc(F)cc1,-1.1%
COc1cccc(CN(CC(=O)NCC2CCCO2)C(=O)CCC(=O)Nc2cc(C)on2)c1 (stereo not given),-6.2%
CCOc1ccc(C(=O)CSc2nnc(N)s2)cc1,-5.5%
Cc1oc(C(C)(C)C)cc1C(=O)Nc1ccc2c(c1)OCCO2,-11.4%
Cc1ccc(CCCOC(=O)C[N+]2(C)CCCC2)cc1,-8.3%
CSc1nc2sc3c(c2c(=O)n1C1CCCCC1)CCN(C)C3,-2.6%
CCn1cc(C(=O)NCC2COc3ccccc3O2)c2cc(OC)c(OC)cc2c1=O (stereo not given),-8.7%
CCOC(=O)CNC(=O)CSc1nc2sc(C)c(C)c2c(=O)n1C,-5.6%
CCOC(=O)c1[nH]c2cc(OC)c(OC)cc2c1NC(=O)c1ccc2c(c1)OCO2,-8.9%
CCOC(=O)c1ccc(-c2c(C(=O)OCC)oc3cc(O)c(CC)cc3c2=O)o1,-17.2%
O=C(/C=C/c1ccco1)Nc1sc2c(c1C(=O)O)CCC2,-17.6%
Cc1cccc(C(=O)Nc2cc(=O)n(C)c(=O)n2C)c1,-3.9%
CCOC(=O)c1c(-c2cccs2)csc1NC(=O)CNCCN1CCOCC1,-12.2%
Cc1cc(C)c2nc(SCC(=O)Nc3ccc(S(=O)(=O)N4CCCC4)cc3)c(C)cc2c1,-10.6%
CC(=O)NCCN1C(=O)C2C3c4ccccc4C(c4ccccc43)C2C1=O (stereo not given),3.7%
COc1cc(NC(=O)c2ccccc2-c2ccccc2)cc(OC)c1,-11.2%
COc1cc2ccccc2cc1-c1nnc(COc2ccccc2)o1,u
CCCCc1c(C)nc2ccc(Br)cc2c1SCCC#N,-11.9%
COc1ccccc1Nc1nc(N)nc(CSc2nnc(C)s2)n1,-22.0%
COc1ccc(-c2nc(-c3ccccc3)c(NCc3ccccc3)o2)cc1,-2.6%
CC(C)C1NC2(C(=O)c3ccccc3C2=O)C2C(=O)N(c3ccc(F)cc3)C(=O)C12 (stereo not given),31.6µM*
O=C(O)Cc1csc(NC(=O)c2ccco2)n1,-10.1%
CC(N1CCOC1=O)S(=O)(=O)c1ccccc1 (stereo not given),-11.7%
O=C(CNC(=S)NC(=O)c1ccc(F)cc1)c1ccccc1,-2.6%
O=C(CSc1ccc(Cl)cc1)Nc1cccc(-c2nc3ncccc3o2)c1,-15.9%
Nc1c(-c2ccc(Cl)cc2)nnn1-c1ccccc1,-23.8%
Cc1ccc(C(=O)CSc2ccccn2)cc1,u
O=C(Cc1ccc(Cl)cc1)Nc1ccc(N2CCN(C(=O)c3ccco3)CC2)cc1,0.1%
Cc1nnc(SCCCn2c(N3CCN(c4ccccc4)CC3)nc3c2c(=O)[nH]c(=O)n3C)s1,-9.3%

# 5 neighbouring records from above, for reference:
SMILES,HPGD inh
O=C(CNC(=S)NC(=O)c1ccc(F)cc1)c1ccccc1,-2.6%
O=C(CSc1ccc(Cl)cc1)Nc1cccc(-c2nc3ncccc3o2)c1,-15.9%
Nc1c(-c2ccc(Cl)cc2)nnn1-c1ccccc1,-23.8%
Cc1ccc(C(=O)CSc2ccccn2)cc1,u
O=C(Cc1ccc(Cl)cc1)Nc1ccc(N2CCN(C(=O)c3ccco3)CC2)cc1,0.1%

# Additional entries.
SMILES,HPGD inh
Nc1cc(N)nc(SCC(=O)NNC(=O)c2ccc(Cl)cc2)n1,0.5%
COc1cc(OC)cc(-c2cc3nc(C)c(CCC(=O)NC(C)CCc4ccco4)c(C)n3n2)c1 (stereo not given),u
Cc1ccc2[nH]c(=O)c(CN(Cc3cccs3)Cc3nnnn3Cc3ccccc3)cc2c1,u
Cc1ccc(CNC(=O)C2CCN(S(=O)(=O)c3cnc[nH]3)CC2)cc1,-6.4%
c1ccc(-c2cccc(N3CCCC4(CCNCC4)C3)c2)cc1,-10.1%
O=C(Nc1nnc(-c2ccco2)o1)C1CCCCC1,u
O=C(N/N=C/c1cccc(Cl)c1Cl)Nc1ccccc1,-23.2%
Cc1ccc2cc3c(N)[nH]nc3nc2c1,-28.1%
O=C(NCCN1CCc2ccccc2C1)C1CCN(S(=O)(=O)N2CCCCC2)CC1,-7.6%
CCOCCCNC(=O)C1CCN(C(=O)Nc2ccc(Cl)cc2)CC1,-7.6%
O=C(CCc1nc(-c2ccccc2)no1)NCc1ccco1,u
COc1ccc(N(C(=O)COc2ccc(F)cc2)S(=O)(=O)c2ccc(C)cc2)cc1,-7.7%
CCCCC12CN3CCN(CC(C3)/C1=N\NC(=O)Nc1ccccc1)C2,2.8%
CCOC(=O)N1CCC(NC(=O)CSCc2nc(-c3cccc(OC)c3)oc2C)CC1,-0.1%
Cc1cc(C)n(C(=O)CNc2ccc(C)c(C)c2)n1,-2.0%
O=C(NC1CCCCC1)NC1CCN(C(=S)NCc2ccco2)CC1,-15.6%
O=C(C1=NN[C@@H]2C(=O)N(c3ccccc3C(F)(F)F)C(=O)[C@H]12)c1ccc2ccccc2n1,-8.1%
Cc1ccc(CNS(=O)(=O)/C=C/c2ccc3c(c2)OCO3)cc1,-7.4%
COc1ccc(F)cc1CN1CCN(c2cc(C)nc3c4c(C)cc(C)nc4nn23)CC1,u
O=c1cc(-c2ccccc2)nc2n1Cc1ccccc1-2,-14.3%
Cc1cc(C)c2c(CN3CCN(C)CC3)cc(=O)oc2c1,-9.9%
O=C(c1cccc([N+](=O)[O-])c1)N1CCN(c2cccc(Cl)c2)CC1,-2.3%
Cc1[nH]n(-c2ccccc2)c(=S)c1C=Nc1cccc([N+](=O)[O-])c1,8.91µM*
CCOC(=O)C1CCN(C(=O)Cc2c(C(=O)O)[nH]c3ccccc23)CC1,u
O=C(CSc1ncnc2scc(-c3ccccc3)c12)NCc1ccc2c(c1)OCO2,-13.5%
Fc1ccccc1CNCCC(Cc1ccccc1)c1ccc2c(c1)OCO2 (stereo not given),1.8%
Cc1noc(N)c1C(=O)Nc1ccc(C(C)(C)C)cc1,-14.0%
N/C(=N\OC(=O)Nc1ccc(Cl)cc1)c1ncc(C(F)(F)F)cc1Cl,-3.2%
Cc1cccc(N/C=C/c2onc(C)c2[N+](=O)[O-])c1,-4.6%
COc1ccc(/C=C/C(=O)NC(C)CCc2ccccc2)cc1 (stereo not given),-5.4%
Cc1ccn2cc(CCNC(=O)c3ccc(Br)o3)nc2c1,-9.2%
Cc1oc(C)c(C(N)=O)c1C(N)=O,-5.1%
C(=C\c1ccccc1)/CN1CCN(Cc2ccc3c(c2)OCCO3)CC1,-13.4%
CCCCC(=O)Nc1ccc2c(c1)OCCO2,25.1µM*
COc1ccccc1CN(CC(=O)NCc1ccc2c(c1)OCO2)C(=O)c1ccc2c(c1)OCCO2,-1.5%
Cc1cc(NC(=O)Cn2nc(C(F)(F)F)c3c2CCC3)n(-c2ccccc2)n1,-11.5%
S=C(CSc1ccccc1)Nc1cccc2ccccc12,-11.4%
Cc1nn(Cc2ccccc2Cl)c(C)c1C(=O)NCc1ccco1,-1.7%
CCCCOc1ccccc1NC(=O)CC1Nc2ccccc2NC1=O (stereo not given),-6.9%
O=C(CN1C(=O)COc2ccc(Cl)cc21)Nc1ccc2c(c1)OCCO2,-7.1%
CCc1nnc(NCn2nc(C)cc2C)s1,-4.4%
Cc1ccccc1NCCNc1ccccc1C,-12.1%
O=C(c1ccc(Cl)cc1)N1CCN=C1c1ccccc1,-6.6%
CCN(CC)CCNC(=O)c1c(C)oc2cc(Br)c(OC)cc12,-4.6%
Nc1nnnn1/N=C/c1cccc(OCc2ccccc2Cl)c1,-7.3%
Nc1cc(Cl)c(NC2=NCCN2)c(Cl)c1,-12.8%
CS(=O)(=O)N(CC(N)=O)c1ccc(F)c(Cl)c1,-7.8%
COCCn1nnnc1CN(CCc1ccc(OC)c(OC)c1)Cc1cc2ccc(C)cc2[nH]c1=O,-14.4%
CCOC(=O)N1CCN(C(=O)Cn2ncn3nc(-c4cccs4)cc3c2=O)CC1,-22.7%
CC(=O)N1CCN(CC(=O)Nc2c(Cl)cccc2Cl)CC1,-13.1%
CC1(C)CC(=O)c2cc(O)ccc2O1,-13.6%
Cc1cc(=O)oc(C)c1C(=O)NCCCN1CCN(c2ccc(F)cc2)CC1,-20.2%
CC(C)(C)Cc1nnc(NS(=O)(=O)c2ccc(F)cc2)s1,u
CCNC(=S)N1CCN(S(=O)(=O)c2cccc(C(F)(F)F)c2)CC1,-13.3%
O=c1n(CC2CO2)c(=O)n(CC2CO2)c(=O)n1CC1CO1 (stereo not given),-3.9%
O=C(c1ccco1)N(Cc1ccc([N+](=O)[O-])cc1)c1ccc(Br)cc1,-9.1%
Cc1cc(=O)oc2cc(Oc3ncccn3)ccc12,-19.6%
COC(=O)NNC(=O)CCCOc1ccc(Cl)cc1Cl,-18.2%
Cc1cccc(CN2CCN(C(c3ccccc3)c3ccc(Cl)cc3)CC2)c1 (stereo not given),-3.7%&-26.3%
C=CCN1C(=O)/C(=C2\SC(N3CCOCC3)=NC2=O)c2cc(Br)ccc21,-15.3%
# (cont.)
SMILES,HPGD inh
COc1ccc(CCNC(=O)COC(=O)c2ccc[nH]c2=O)cc1,-7.2%
O=C(CCCn1c(=O)[nH]c2ccsc2c1=O)N1CCCCC1,14.1µM*
Cc1ccc(CNC(=O)CSc2nc(N3CCCCC3)nc(N3CCCCC3)n2)cc1,-9.4%
CCCc1nnc(NC(=O)CCC(=O)NCCc2ccc(OC)c(OC)c2)s1,-1.7%
COc1ccc(Nc2nc(CC(C)=O)ns2)cc1,-10.9%
COc1cc(CNCc2cccs2)ccc1OCc1ccccc1,-1.7%
Cc1cc(C)n2nc(-c3cccnc3)nc2n1,-7.4%
COc1ccc(-n2c(=O)cc(N3CCN(c4ccccc4OC)CC3)[nH]c2=O)cc1,-9.4%
CC(NC(=O)NC1CCCCC1)C(c1cccs1)N1CCN(c2ccccc2)CC1 (stereo not given),-8.7%
O=C(CSCc1ccccc1Cl)NN=C1CCCCCC1,-17.2%
O=S(=O)(c1ccc2c(c1)OCCO2)N1CCC(O)(c2ccc(Cl)cc2)CC1,-11.8%
O=C(COC(=O)c1cccc(S(=O)(=O)N2CCc3ccccc32)c1)Nc1ccc(Cl)cn1,-3.5%

# HPGD inh, entries above that show a hit.
SMILES,HPGD inh
CC(C)C1NC2(C(=O)c3ccccc3C2=O)C2C(=O)N(c3ccc(F)cc3)C(=O)C12 (stereo not given),31.6µM*
Cc1[nH]n(-c2ccccc2)c(=S)c1C=Nc1cccc([N+](=O)[O-])c1,8.91µM*
CCCCC(=O)Nc1ccc2c(c1)OCCO2,25.1µM*
O=C(CCCn1c(=O)[nH]c2ccsc2c1=O)N1CCCCC1,14.1µM*

# Continuation.
SMILES,HPGD inh
O=C(Nc1cccc(S(=O)(=O)N2CCCCCC2)c1)c1ccc2ccccc2n1,-5.1%
CCOc1cccc(-c2cc(C(=O)N/N=C/c3cccc(OC)c3O)[nH]n2)c1,-11.7%
O=C(CSc1nc(-c2ccccc2)cc(=O)[nH]1)N1CCc2ccccc21,-17.7%
O=[N+]([O-])c1ccc(NCCCNS(=O)(=O)c2ccc(Cl)cc2)c(Cl)c1,-13.6%
CCC(c1nnc(SCCNCCO)n1CCN1CCOCC1)N(C)C (stereo not given),-7.6%
C=C1CCC2C(CC2(C)C)C(=C)CC/C1=N/O (stereo not given),-5.9%
COc1cc(CC(=O)N/N=C/c2ccccc2)c([N+](=O)[O-])cc1OC,u
CCOC(=O)c1ccc(S(=O)(=O)NNC(=O)COc2ccc(C)cc2)cc1,-9.3%
O=C(CCc1ccccc1)N1CCN(CCO)CC1,3.5%
CCc1ccc(C(=O)N/N=C/c2ccc(Cl)cc2Cl)nc1,-10.1%
CCc1nnc(NC(=O)c2ccc(Cl)c(S(=O)(=O)N3CCc4ccccc4C3)c2)s1,-10.8%
CC(OC(=O)c1nsc(Cl)c1Cl)C(=O)NCc1ccco1 (stereo not given),-20.0%
CC(=O)Nc1cccc(-c2csc(Nc3ccccn3)n2)c1,-16.4%
O=C(NC1CCN(C(=O)N2c3ccccc3Sc3ccccc32)CC1)c1ccccc1F,-10.4%
Cc1cccc(NC(=O)CN2CCN(CC(=O)Nc3cccc(C)c3)CC2)c1,-2.2%
O=C(/C=C/NNC(=O)c1cccc(Br)c1)c1cccc(Br)c1,-13.6%
NS(=O)(=O)c1ccc(CCNC2CC(=O)N(CCc3ccccc3)C2=O)cc1 (stereo not given),-7.9%
COc1ccc(NC(=S)N2CCNC(=O)C2CC(=O)Nc2cccc(Cl)c2C)cc1 (stereo not given),-8.8%
CC(C)CC1=C/C(=C/c2ccc(-c3ccccc3)o2)C(=O)O1,u
CC(C)(C)NC(=O)C(c1c[nH]c2ccccc12)N(C(=O)Cn1nnc(-c2ccc(Cl)cc2)n1)c1ccccc1F (stereo not given),-22.6%

# Laid out differently: three of the compounds above
structure	HPGD inh
Cc1cccc(NC(=O)CN2CCN(CC(=O)Nc3cccc(C)c3)CC2)c1	-2.2%
O=C(/C=C/NNC(=O)c1cccc(Br)c1)c1cccc(Br)c1	-13.6%
NS(=O)(=O)c1ccc(CCNC2CC(=O)N(CCc3ccccc3)C2=O)cc1 (stereo not given)	-7.9%
